TRPML1 blocker – human mucolipin-1 channel inhibition; Q9GZU1; TRPML1-inducible cells, Ca2+ dye fluorescence, FDSS; active compounds read low; inhibition of EC80 agonist-evoked calcium signal; activity change, negative = inhibition, % (test concentration not listed); 0.02% of 390,000 active; in the data active means activity change below about -50%; inconclusive means about -30% to -50%; inactive means above about -30%;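 further: stimulus is agonist 54-4 at its EC80 concentration; on the % scale 0 is the no-effect control and ±100 the full control effect; compound concentration not given in the record; the text of the record puts the active cut at -80%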
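Tet-induced TRPML1-DL cells loaded with Ca8 no-wash calcium dye were read kinetically on FDSS. Compound addition was followed by EC80 agonist 54-4 (4 uM final); inhibition was read over 110 s.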
Menin-MLL FL inh – menin-MLL binding inhibition, fluorescein peptide; Fluorescence polarization, fluorescein-MLL peptide displacement from menin; FP activity change, % at 61.4 µM; 290,000 tested, under 10 active; inconclusive = falling polarisation curve, or a change in total fluorescence; inactive = total fluorescence flat and polarisation flat or rising; no compound was filed as active; the % refers to the polarisation; negative = inhibition;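 further: % of control where 0% means no effect; inhibitors lower the polarisation; unlabelled MLL peptide was the positive control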
Sfp inh – Sfp phosphopantetheinyl transferase inhibition; Q9F4F7; Biochemical Sfp PPTase activity, qHTS; Potency, µM, for inactives: max response, negative = inhibition, actives largely listed as inhibitors; 3.5% of 310,000 active; AID 1490; active means well fitted inhibition curve with a large enough effect; inconclusive means small, poorly fitted or top-dose-only effect, or another doubt; inactive means no such curve, though single readings can be large or run the other way;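 further: the enzyme is Sfp with the accession as filed and its product quenches rhodamine fluorescence; potency means the concentration at half of the fitted maximal effect; 0% = enzyme reaction without inhibitor and -100% = no enzyme wells; top concentration of the series not given in the record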
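Fluorescence-quenching assay: 15 nM Sfp-PPTase preincubated 15 min at room temperature with compound, then 5 uM rhodamine-CoA and 12.5 uM BHQ-2-labelled YbbR peptide added. Fluorescence (ex 525/em 598 nm) read at start and after 30 min; difference gives rate.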
gsp antag – antagonists of gsp mutant (McCune-Albright syndrome); 0.4% of 340,000 active; gsp-mutant cells, cAMP HTRF, 30 min; control for the full effect not named in the record; Potency, µM (doses to about 76.9 µM), for inactives: at the top dose activity change, negative = inhibition, usual class: inhibitors; active = falling curve of any shape with a large fitted effect; inconclusive = falling curve, mostly with a smaller effect; inactive = flat or rising curve; cell line not stated here;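 further: intracellular cAMP measured with PDE inhibitor Ro 20-1724 present during compound exposure; potency means the concentration at half of the fitted maximal effect; on the % scale 0 is the no-effect control and ±100 the full control effect; nearly all actives have a fitted effect of over 65% in size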
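HTRF cAMP measurement after 30 min RT detection following 30 min, 37C compound treatment alongside […] (added as 300 uM solution) in G418-selected cells seeded at 2000/well and grown 16–24 h.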
TRPV1 PAM – enhances activation of the human vanilloid receptor TRPV1; AID 540277; 0.02% of 320,000 active; potentiation, % at 8.33 µM; TRPV1-expressing cells, Fluo-8 calcium influx, capsaicin EC20 potentiation; host cell line not named in the record; control for the full effect not named in the record; active means potentiation above 80%; inconclusive means 30% to 80%; inactive means below 30%; further: 0% is about no effect
Target sequence (Q8NER1 whole entry, looked up): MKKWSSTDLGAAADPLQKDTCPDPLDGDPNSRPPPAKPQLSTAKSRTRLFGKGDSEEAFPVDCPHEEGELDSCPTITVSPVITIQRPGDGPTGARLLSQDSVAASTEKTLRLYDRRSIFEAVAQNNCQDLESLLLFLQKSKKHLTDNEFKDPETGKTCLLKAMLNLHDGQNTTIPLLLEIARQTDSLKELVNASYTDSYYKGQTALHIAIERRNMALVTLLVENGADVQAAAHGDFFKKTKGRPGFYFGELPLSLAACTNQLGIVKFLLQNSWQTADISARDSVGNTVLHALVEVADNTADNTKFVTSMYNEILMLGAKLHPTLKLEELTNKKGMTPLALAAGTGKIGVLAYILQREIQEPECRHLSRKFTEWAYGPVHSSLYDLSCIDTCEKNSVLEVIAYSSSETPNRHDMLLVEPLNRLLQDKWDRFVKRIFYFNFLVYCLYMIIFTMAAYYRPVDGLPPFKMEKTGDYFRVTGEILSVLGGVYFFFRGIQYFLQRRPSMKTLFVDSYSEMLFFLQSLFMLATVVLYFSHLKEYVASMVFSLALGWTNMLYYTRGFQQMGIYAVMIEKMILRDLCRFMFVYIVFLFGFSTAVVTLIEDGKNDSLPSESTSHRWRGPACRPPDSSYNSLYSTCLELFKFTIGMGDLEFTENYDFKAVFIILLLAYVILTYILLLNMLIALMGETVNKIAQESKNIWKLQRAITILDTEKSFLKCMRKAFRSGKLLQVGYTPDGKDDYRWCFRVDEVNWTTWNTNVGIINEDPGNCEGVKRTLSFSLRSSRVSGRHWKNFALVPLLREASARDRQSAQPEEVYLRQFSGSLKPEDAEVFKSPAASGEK
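Cells expressing TRPV1 were dye-loaded with Fluo-8 and read kinetically: 10 s baseline, 3 min after compound (agonist portion), then 2 min after EC20 capsaicin (allosteric enhancer portion). Calcium-bound dye fluorescence at 480/520 nm.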
gsp ag – activates gsp, the McCune-Albright syndrome mutation. Potency, µM (titrated, usually from 76.9 µM), for inactives: at the highest dose activation (cAMP increase), usual class: activators. gsp mutant cells, cAMP HTRF, 30 min; control for the full effect not named in the record. 0.13% of 340,000 active; active = well fitted activation curve with a large enough effect; inconclusive = small, poorly fitted or top-dose-only effect, or another doubt; inactive = no such curve, though single readings can be large or run the other way; cell line not stated here;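 further: phosphodiesterase inhibitor Ro 20-1724 added with compounds to block cAMP breakdown; potency means the concentration at half of the fitted maximal effect; nearly all actives have a fitted effect of over 60% in size; about a fifth of the inactives were tested at one dose only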
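Cells in DMEM/10% FBS with G418 were pretreated with compounds in DMSO plus […] (300 uM stock) for 30 min at 37C. cAMP was measured by HTRF (cAMP-d2 plus anti-cAMP antibody-K) after 30 min at room temperature.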
ClpP mod – qHTS Assay for Activators of ClpP | Potency, µM (series often up to 57.5 µM), inactives show at the top dose activity change, negative = active | purified B. subtilis ClpP, FRET peptide cleavage, 20 min | ATP-dependent Clp protease proteolytic subunit (Bacillus subtilis (strain 168)), P80244 | AID 651965, 2013 | 1.9% of 340,000 active; active = well fitted falling curve with a large enough effect; inconclusive = small, poorly fitted or top-dose-only effect; inactive = no such curve, though single readings can be large or run the other way; further: potency means the concentration at half of the fitted maximal effect; the source files actives as falling curves though it sought activators and does not explain the sign; nearly all actives have a fitted effect of over 65% in size; many hits overshoot -100%
Target sequence (P80244 whole entry, looked up): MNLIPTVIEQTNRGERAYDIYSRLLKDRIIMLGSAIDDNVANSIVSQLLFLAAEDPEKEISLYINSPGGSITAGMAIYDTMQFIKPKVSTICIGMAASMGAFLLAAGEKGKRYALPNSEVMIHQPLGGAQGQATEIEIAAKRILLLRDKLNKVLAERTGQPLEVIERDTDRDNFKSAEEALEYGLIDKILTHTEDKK
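FRET quenching reversal measured ClpP activation: 10 microg/mL B. subtilis ClpP at pH 8 with the FRET-FV decapeptide, read at 430 nm after 320 nm excitation. The 20-min minus 0-min signal was scaled between DMSO/no-enzyme wells and ADEP (5.8 microM final).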
Starred values were filed as active, the others as inactive; ? = inconclusive; nt = no result given; & = joins results of further samples; [ ] = dose if it differs, or a comment.

SMILES | TRPML1 blocker | Menin-MLL FL inh | Sfp inh | gsp antag | TRPV1 PAM | gsp ag | ClpP mod
CCCN1C(=O)C(=O)N(CC(=O)c2cc(C)n(C3CC3)c2C)C1=O | -13 | nt | nt | 3% | -8 | -3% | -2.6%
O=C(c1cc[n+]([O-])cc1)N1CCc2c([nH]c3ccccc23)C1c1ccccc1Cl (configuration not stated) | 17 | -1.5 | -7% | -8% | -4 | -46%[inhibitor] | nt
CC(C)=CC(=O)OCC(=O)Nc1ccc(Cl)cc1 | -3 | 2.7 | 1% | 3% | -9 | 6% | nt
CCCOc1ccc(CC(=O)NCc2ccco2)cc1OC | -1 | 1.7 | -8% | -9% | -7 | -16% | 1.5%
O=C(NCc1ccco1)C1Cc2ccccc2CN1S(=O)(=O)c1ccccc1F (configuration not stated) | -2 | nt | nt | 1% | nt | -32% | -8.8%
COc1ccc(CN(C)CC(=O)c2c(N)n(Cc3ccccc3)c(=O)n(C)c2=O)c(OC)c1 | -2 | -0.4 | 3% | 5% | -15 | 0% | 0.0%
CC(C)(C)c1ccc(C(=O)N/N=C/c2ccccn2)cc1 | -10 | -3.3 | -14% | 17% | -2 | -75%[inhibitor] | -1.4%
C[C@H](NC(=O)c1nc[nH]c1C(=O)N[C@@H](Cc1ccccc1)C(=O)OC(C)(C)C)c1ccccc1 | -9 | 2.0 | 23% | -2% | 3 | 5% | 0.8%
Cc1cc(C)cc(-n2ncc3c2CCCC3NC(=O)CN2CCCCC2=O)c1 (configuration not stated) | -5 | nt | nt | 8% | nt | 16% | -0.6%
Cc1nnc(SC(C)C(=O)N2CCc3ccccc32)s1 (configuration not stated) | -7 | 6.8 | 11% | 2% | 4 | ? | -0.9%
Cc1cccc(OCC(=O)NC(=S)Nc2ccccc2N2CCOCC2)c1 | 5 | 6.5 | -13% | -12% | 6 | -23% | 0.6%
CC(C)N1C(=O)c2ccccc2N(Cc2ccccc2)S1(=O)=O | -1 | -0.7 | -2% | -7% | 9 | 3% | -19%
Cc1c(C(=O)N2CCCCCC2)c(S(=O)(=O)Nc2ccc(F)cc2)c(C)n1C | 2 | -0.6 | 7% | 2% | 2 | 8% | 1.8%
CC(NC(=O)c1ccc(Br)cc1Br)c1ccccc1 (configuration not stated) | -13 | 5.0 | -11% | -8% | 0 | -2%[15.4 µM] | nt
CC1=C(C)C(=O)N(c2ccc(C(=O)O)cc2)C1=O | 2 | 0.5 | 11% | 10% | -8 | 19% | 0.4%
CCCCN(C(=O)/C=C/c1ccccc1)C1CCS(=O)(=O)C1 (configuration not stated) | 4 | nt | nt | -8% | -11 | 10%[15.4 µM] | nt
CCN(CC)C(=O)c1[nH]cnc1C(=O)N[C@@H](Cc1ccccc1)C(=O)OCc1ccccc1 | -11 | -0.2 | 15% | -5% | -3 | 16% | 1.7%
Cn1cc(S(=O)(=O)N2CCN(c3cccc(Cl)c3)CC2)c(=O)n(C)c1=O | 13 | 1.4 | 8% | 3% | 15 | -2%[15.4 µM] | nt
Cc1ccc(S(=O)(=O)N2CCCC(C(=O)NCC3COCCO3)C2)cc1 (configuration not stated) | 4 | 0.9 | 9% | 0% | -8 | -2% | 0.0%
CCc1cccc(NC(=O)CSCc2cc(=O)[nH][nH]2)c1 | 2 | 1.4 | -2% | 1% | 0 | 1% | -0.8%
Cc1cc2oc(=O)cc(C)c2cc1NC(=O)CCC(=O)O | -3 | 3.3 | -1% | 4% | -3 | 2% | 3.9%
COC(=O)C[C@H]1c2cc(F)ccc2S(=O)(=O)N1c1ccccc1 | -12 | nt | nt | 10% | nt | 2% | -4.1%&0.5%
CCOc1ccc(N2C(=O)C3C(c4ccc(OC)cc4OC)NC(CCSC)(C(=O)OC)C3C2=O)cc1 (configuration not stated) | -8 | 3.1 | 17% | -6% | -6 | -37%[inhibitor] | nt
Cc1ccc(S(=O)(=O)Nc2ccc3nc(C)sc3c2)c(C)c1 | 6 | nt | nt | -29% | 18 | 6% | -1.6%
CCOc1ccccc1C(=O)N(Cc1sccc1C)C1CCS(=O)(=O)C1 (configuration not stated) | -13&-13 | -0.6 | 8% | 7% | 6 | ? | -0.7%&-1.8%
Cc1cccc2sc(NC(=O)CN(C)S(=O)(=O)c3ccc(Br)s3)nc12 | -18 | 53[activator] | -3% | -17% | 12 | -59%[inhibitor] | -3.8%
C=CCn1c(SCc2nc3ccccc3[nH]2)nnc1-c1ccccn1 | 17 | 2.0 | -2% | 7% | nt | 8% | -1.9%
CC1(C)C(=O)Nc2ccccc2N1C(=O)COC(=O)Cc1ccccc1F | -3 | nt | nt | 9% | nt | -2%[15.4 µM] | 0.3%
Cc1ccc(S(=O)(=O)N(C)C)cc1NC(=O)C(C)OC(=O)C1CCCC1 (configuration not stated) | 29 | nt | nt | 11% | 0 | -2% | 0.8%
CNC(=S)N1CCN(c2nc(-c3ccc(Cl)cc3)cs2)CC1 | -2 | 0.9 | 6% | ? | 4 | -1% | nt
C/C=C(\C)C(=O)OC(C)(C)[C@@H]1Cc2cc3ccc(=O)oc3cc2O1 | 64 | nt | nt | -3% | -18 | nt | 4.5%
Cc1ccc(N=Nc2c(=O)[nH]n3c(=O)cc(C)[nH]c23)cc1 | -2 | 4.0 | 1% | ? | -14 | -41%[inhibitor] | -0.4%
CCOc1ccc(-c2nnc(NC(=O)CCCOc3cccc(C)c3)o2)cc1 | -11 | -0.2 | 6% | 11% | 6 | 0% | -3.5%
O=C(Nc1ccc(F)c(F)c1)c1ccco1 | -4 | 7.3 | 11% | 9% | -16 | -33%[inhibitor] | 2.6%
CCOC(=O)/C(=N\Nc1ncnc2ccccc12)c1ccc(OC)cc1 | 1 | 3.5 | -19% | -10% | -10 | 14% | nt
Cc1ccc(N(C(=O)CNC(=O)c2ccco2)C(C(=O)NC2CCCC2)c2ccncc2)cc1C (configuration not stated) | -9 | -1.9 | 10% | -38% | 24 | 20%[15.4 µM] | nt
COc1ccc(N2CCN(S(=O)(=O)c3cccc4cccnc34)CC2)cc1 | -10 | 2.8 | 1% | -8% | nt | -21% | 1.5%
CC1CCCCN1C(=O)c1c([N+](=O)[O-])cnn1C (configuration not stated) | 20 | nt | 16% | 12% | -5 | -1% | 0.4%
Cc1cc(NC(=O)CSc2nnc(CNC(=O)c3ccc(C(C)(C)C)cc3)o2)no1 | 7 | 1.3 | -3% | -13% | -12 | 13%[15.4 µM] | -6.6%
CC(=O)c1c(C)[nH]c(C(=O)Nc2cc(F)ccc2C)c1C | 26 | 0.5 | 9% | 1% | -8 | -2%[15.4 µM] | nt
Cc1noc(NS(=O)(=O)c2ccc(NC(=O)c3cc(-c4ccccc4Cl)nc4ccccc34)cc2)c1C | 21 | 0.2 | 23% | -8% | 15 | 15% | -0.1%
CCOc1ccc(S(=O)(=O)N2CC(=O)Nc3ccccc32)cc1 | 9 | 2.5 | 11% | 3% | -3 | 17%[15.4 µM] | 32µM*
NCCNc1ccc2nnnn2n1 | 9 | -0.2 | 10% | 8% | -42 | -4%[15.4 µM] | 1.8%
O=C1C/C(=C/NCc2ccccc2)C(=O)N1 | -8 | -0.1 | 14% | 8% | 4 | -6% | -9.5%
O=C(Oc1ccc(Br)cc1C(=S)N1CCOCC1)c1cccc([N+](=O)[O-])c1 | 33 | 1.0 | 50µM* | 4% | 0 | -5% | nt
CC(=O)N1c2ccccc2C(=O)C1N1CCCCC1 (configuration not stated) | -2 | -10 | 5% | 1% | 0 | 19% | ?
COc1cccc(N2CCN(c3ccc4nnc(CCC(=O)Nc5ccc(F)cc5F)n4n3)CC2)c1 | 3 | nt | 14% | -4% | 21 | 20% | -0.8%
Cc1c(/C(O)=C2/C(=O)C(=O)N(Cc3cccnc3)C2c2ccccn2)cnn1-c1ccccc1 (configuration not stated) | 6 | -1.2 | 1% | 18% | -1 | -16%[15.4 µM] | nt
CSCCC(=O)N1CCC(CCC(=O)NC2CC2)CC1 | -22 | nt | 16% | 8% | 5 | -18% | 2.6%
Cc1cc(C(=O)COC(=O)Cc2c(F)cccc2Cl)c(C)n1C | -1 | nt | nt | nt | nt | ? | 0.7%
COc1ccc(CCNC(=O)CCC(=O)Nc2nnc(C(C)C)s2)cc1OC | 15 | -0.5 | 3% | -1% | ? | 0% | ?
CCOC(=O)c1nnn(CC(=O)Nc2ccccc2)c1C(=O)OCC | -7 | -1.1 | 4% | 4% | -13 | 24% | 2.2%
CC(C)(C)NC(=O)C1(N2C(=O)c3ccccc3C2=O)CCCC1 | 8 | nt | nt | 0% | nt | -3%[15.4 µM] | -1.6%
CC1/C(=N/O)CC(c2ccccc2)NC1c1ccccc1 (configuration not stated) | 1 | 3.0 | 14% | -23% | -2 | 1% | -0.1%

A different layout for some results above.
> CC(=O)N1c2ccccc2C(=O)C1N1CCCCC1 (configuration not stated)
  TRPML1 blocker = -2
  Menin-MLL FL inh = -10
  Sfp inh = 5%
  gsp antag = 1%
  TRPV1 PAM = 0
  gsp ag = 19%
  ClpP mod = ?

> COc1cccc(N2CCN(c3ccc4nnc(CCC(=O)Nc5ccc(F)cc5F)n4n3)CC2)c1
  TRPML1 blocker = 3
  Menin-MLL FL inh = nt
  Sfp inh = 14%
  gsp antag = -4%
  TRPV1 PAM = 21
  gsp ag = 20%
  ClpP mod = -0.8%

> Cc1c(/C(O)=C2/C(=O)C(=O)N(Cc3cccnc3)C2c2ccccn2)cnn1-c1ccccc1 (configuration not stated)
  TRPML1 blocker = 6
  Menin-MLL FL inh = -1.2
  Sfp inh = 1%
  gsp antag = 18%
  TRPV1 PAM = -1
  gsp ag = -16%[15.4 µM]
  ClpP mod = nt

> CSCCC(=O)N1CCC(CCC(=O)NC2CC2)CC1
  TRPML1 blocker = -22
  Menin-MLL FL inh = nt
  Sfp inh = 16%
  gsp antag = 8%
  TRPV1 PAM = 5
  gsp ag = -18%
  ClpP mod = 2.6%

Sfp inh: what is marked active above.
canonical_smiles,TRPML1 blocker,Menin-MLL FL inh,Sfp inh,gsp ag
O=C(Oc1ccc(Br)cc1C(=S)N1CCOCC1)c1cccc([N+](=O)[O-])c1,33,1.0,50µM*,-5%
